Bioassay records: PubChem BioAssay, Broad Institute
Ecoli rRNA inh – selective bacterial rRNA inhibition in E. coli; E. coli WT GFP vs humanized-ribosome RFP mutants, fluorescence, 24 h; hits give low values; DMSO median 0, no signal -100; hit rate 1.6% among 350,000; AID 720706; GFP signal change (wild-type ribosome), % (no concentration beside the values);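 active = significant combined selectivity score with lowered wild-type GFP, culture density cut under 30%, mutant RFP and density less affected; inactive = any of these conditions unmet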; also: one replicate is shown; some compounds called inactive have numbers as strong as hits
Ecoli rRNA inh OD600 – recorded beside Ecoli rRNA inh, whose call it bears; OD600 change, %; measured here: OD600 growth;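 optical density of the mix in the first replicate; 0 = DMSO median and -100 = no signal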
Ecoli rRNA inh RFP – recorded beside Ecoli rRNA inh, whose call it bears; RFP signal change, %; measured here: RFP humanized mutant strains;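 first replicate; 0 = DMSO median and -100 = no signal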
Starred values were filed as active, the others as inactive; & = joins results of further samples.

SMILES	Ecoli rRNA inh	Ecoli rRNA inh OD600	Ecoli rRNA inh RFP
CC(=O)N1C[C@@H]2C(c3ccc(Br)cc3)[C@H](C1)N2Cc1ccc(F)cc1 (some centres not stated)	-2&-13	-16&-44	-1.5&-6.8
C[C@@H]1CCCCO[C@@H](CN(C)C(=O)Cc2ccccc2)[C@@H](C)CN([C@H](C)CO)C(=O)c2cc(NC(=O)Nc3ccc(F)cc3)ccc2O1	3	9	0.2
CC(C)C#Cc1ccc([C@@H]2[C@H]3CN(C(=O)NC(C)C)CCCCN3[C@H]2CO)cc1	5	-8	-5.6
CC(C)NC(=O)N(C)C[C@H]1Oc2ccc(NC(=O)Cn3cnnn3)cc2C(=O)N([C@@H](C)CO)C[C@H]1C	6	7	1.1
C[C@@H]1CN([C@@H](C)CO)C(=O)c2cc(C#CC3CC3)cnc2O[C@@H]1CN(C)C(=O)c1ccncc1	8	17	-3.0
CN1C(=O)c2cc(NC(=O)C3CCOCC3)ccc2OC[C@@H]2O[C@H](CC(=O)NCc3ccccc3F)CC[C@@H]21	2	5	0.2
COc1cccc(CNC(=O)C[C@H]2C=C[C@H](NC(=O)C3CCC3)[C@@H](CO)O2)c1	2	4	-0.6
C[C@@H]1CN([C@@H](C)CO)C(=O)Cc2cc(NC(=O)Cn3cnnn3)ccc2O[C@@H]1CN(C)S(=O)(=O)c1ccccc1	1	5	1.0
COc1ccc(CNC(=O)C[C@@H]2CC[C@@H]3[C@H](COc4ccc(NC(=O)C(C)C)cc4C(=O)N3C)O2)cc1	-10	6	6.4
COC(=O)c1ccc(CN2CC(=O)N3[C@H](CO)[C@H](c4ccc(-c5ccccc5)cc4)[C@H]3C2)cc1	-4	-21	13
O=C(Nc1ccccc1)N1CC(=O)N2[C@@H](CO)[C@H](c3ccc(-c4ccc(F)cc4)cc3)[C@@H]2C1	-6	-49	24
C/C=C/c1ccc([C@H]2[C@@H](CNC(=O)c3ccncc3)N(C(C)=O)[C@H]2CO)cc1	-2	-9	-0.5
CN1c2ccc(-c3ccccc3)cc2[C@@H]2[C@@H](CCN2C(=O)NC2CCCC2)[C@@H]1CO	-42	-63	1.2
COc1ccc(NC(=O)N(C)C[C@H]2Oc3ccc(NS(=O)(=O)c4ccc(C)cc4)cc3CC(=O)N([C@@H](C)CO)C[C@H]2C)cc1	-3	-3	1.2
CCCC#Cc1ccc([C@@H]2[C@@H](CO)N3C(=O)CN(C(=O)Nc4ccccc4)C[C@H]23)cc1	2	-22	12
C=C1C2=C(C(=O)N1OC)[C@@H](O)[C@@](C)(O)[C@@H](CCCCC)O2	2	11	5.6
O=C1CCC(=O)NCC/C=C/CCN1	10	6	0.6
COc1ccc(C#Cc2ccc3c(c2)O[C@@H](CN(C)C(=O)CN2CCOCC2)[C@H](C)CN([C@H](C)CO)S3(=O)=O)cc1	7	-14	19
O=C(C1CCCC1)N1CC(=O)N2[C@@H](CO)[C@H](c3ccc(C#CC4CCCC4)cc3)[C@@H]2C1	-41	-66	1.8
C[C@H](CO)N1C[C@H](C)[C@H](CN(C)Cc2ccccc2)Oc2cc(C3=CCCCC3)ccc2S1(=O)=O	-9	-15	0.9
CCCN(C)C[C@H]1OCCCC[C@H](C)Oc2ccc(NC(=O)Nc3ccc(F)cc3)cc2C(=O)N([C@@H](C)CO)C[C@H]1C	1	8	2.2
O=C(c1ccc(F)cc1)N1CC[C@@H]2[C@H](CO)Nc3ccc(C#CC4CC4)cc3[C@@H]21	4	11	-2.9
C/C=C/c1cccc(-c2nc(C(=O)NCCN3CCCC3)cc3c2[C@@H](CCO)N([S@](=O)C(C)(C)C)C3)c1	6	-2	-0.5
C=CCN1[C@@H]2CN(S(C)(=O)=O)C[C@H]1C2c1ccc(-c2ccc(F)cc2)cc1 (some centres not stated)	-11	-15	2.6
COCC(=O)Nc1ccc2c(c1)OC[C@H](C)N(C(=O)C1CCCC1)C[C@H](C)[C@H](OC)CN(C)C2=O	1	-2	0.2
Carrying on.
SMILES	Ecoli rRNA inh	Ecoli rRNA inh OD600	Ecoli rRNA inh RFP
CO[C@@H]1CN(C)C(=O)c2ccc(NC(=O)NC(C)C)cc2OC[C@@H](C)N(Cc2cncnc2)C[C@H]1C	0	1	0.8
CC(=O)N1[C@@H]2CN(C(=O)NC(C)C)C[C@H]1C2c1ccccc1 (some centres not stated)	1&0	-1&-4	0.0&-0.6
CCCNC(=O)N1C[C@@H]2[C@H](c3ccccc31)[C@H](CO)N2C(=O)C1CCOCC1	-1	0	-0.1
O=C1C[C@H](c2ccccc2)C(=O)N[C@H](c2ccccc2)C/C=C\C[C@H](c2ccccc2)N1	6	20	0.1
C[C@H]1CN([C@@H](C)CO)S(=O)(=O)c2ccc(-c3ccccc3)cc2O[C@@H]1CN(C)C(=O)c1ccccc1F	-16	-36	8.3
COCC(=O)Nc1ccc2c(c1)OC[C@H](C)N(C(=O)C1CCCC1)C[C@@H](C)[C@@H](OC)CN(C)C2=O	0	4	-2.0
COc1ccc(S(=O)(=O)Nc2ccc3c(c2)C(=O)N([C@@H](C)CO)C[C@@H](C)[C@@H](CN(C)C(=O)NC(C)C)O3)cc1	-3	-5	-3.4
C[C@H](CO)N1C[C@H](C)[C@@H](CN(C)S(C)(=O)=O)OCCCC[C@H](C)Oc2ccc(NC(=O)c3ccccc3)cc2C1=O	-1	-3	0.9
CC(=O)Nc1ccc2c(c1)C(=O)N(C)C[C@H](C)[C@@H](CN(C)C)O2	1	2	-0.8
Cc1noc(C)c1S(=O)(=O)N(C)C[C@H]1Oc2c(NC(=O)C3CCOCC3)cccc2C(=O)N([C@H](C)CO)C[C@H]1C	-2	6	-1.5
CO[C@H]1CN(C)C(=O)c2ccc(NC(C)=O)cc2OC[C@H](C)N(Cc2cccnc2)C[C@@H]1C	1	0	-1.5
O=C(c1ccc(F)cc1)N1CC[C@@H]2[C@H]1c1cc(C3=CCCCC3)ccc1N[C@@H]2CO	-10	-1	8.9
CC(C)CC#Cc1ccc([C@@H]2[C@H](CO)N3C(=O)CN(S(C)(=O)=O)C[C@@H]23)cc1	-2	-2	-0.2
CCCNC(=O)N1C[C@H](C)[C@@H](OC)CN(C)C(=O)c2cc(NC(=O)C3CCC3)ccc2OC[C@H]1C	2	3	-5.5
C[C@H](CO)N1C[C@H](C)[C@@H](CN(C)C(=O)Nc2cccc(F)c2)OCc2ccccc2-c2ccccc2C1=O	-1	-1	0.3
O=C(c1ccccc1)N1CC(=O)N2[C@H](CO)[C@H](c3ccc(/C=C/c4ccccc4)cc3)[C@@H]2C1	-9	-59	15
COc1ccc(CN2CC3(C2)[C@H](c2ccccc2)[C@@H](CO)N3CC2CCCC2)cc1	-4	6	4.4
N#Cc1cccc(-c2ccc3c(c2)[C@H]2[C@H](CCN2C(=O)CN2CCOCC2)[C@@H](CO)N3)c1	-6	5	1.4
C[C@H]1CN(C)C(=O)Cc2ccccc2O[C@@H]1CN(C)C	-1	7	3.9
C[C@@H]1CN([C@H](C)CO)C(=O)c2cc(NC(=O)CCC(F)(F)F)ccc2O[C@@H](C)CCCCO[C@@H]1CN(C)Cc1ccncc1	0	1	1.3
CC(=O)Nc1ccc2c(c1)CC(=O)N(C)C[C@H](C)[C@@H](CN(C)S(C)(=O)=O)O2	1	-1	-0.2
CO[C@H]1CN(C)C(=O)c2cc(NC(=O)Nc3ccccc3)ccc2OC[C@@H](C)NC[C@H]1C	0	-3	-0.3
C[C@H]1CN(C)C(=O)c2cc([N+](=O)[O-])ccc2O[C@H]1CN(C)C(=O)OC(C)(C)C	-3	-3	-0.8
COc1ccc2c3c(n(C)c2c1)[C@H](CO)NCC31CN(Cc2ccc(Cl)cc2)C1	-21	-44	16
CNC[C@H]1OCc2cnnn2CCCC(=O)N([C@@H](C)CO)C[C@H]1C	3	4	-1.8
Further entries:
SMILES	Ecoli rRNA inh	Ecoli rRNA inh OD600	Ecoli rRNA inh RFP
C[C@@H]1CN(C)C(=O)c2cccc(NS(C)(=O)=O)c2O[C@@H]1CN(C)C	1	3	-2.1
C[C@H](CO)N1C[C@H](C)[C@H](CN(C)Cc2ccccc2)Oc2ncc(-c3cccnc3)cc2C1=O	0	-7	-3.8
COc1ccc(C[C@H]2CCn3cc(nn3)COC[C@@H](c3ccccc3)NC2=O)cc1	0	14	-2.5
CO[C@H]1CN(C)C(=O)c2ccc(NC(=O)c3ccccc3F)cc2OC[C@H](C)N(C)C[C@@H]1C	1	-7	-0.6
C[C@@H]1CN([C@@H](C)CO)C(=O)c2cc(N(C)C)ccc2O[C@@H](C)CCCCO[C@@H]1CN(C)Cc1ccc(C(=O)O)cc1	3	7	-0.6
C[C@@H]1CN([C@@H](C)CO)C(=O)Cc2cc(NC(=O)Cn3cnnn3)ccc2O[C@H]1CN(C)C(=O)Nc1cccc2ccccc12	2	0	2.8
C[C@H](CO)N1C[C@H](C)[C@@H](CN(C)C(=O)Nc2ccc(C(F)(F)F)cc2)Oc2ccc(NC(=O)CCCCCC(=O)Nc3ccccc3N)cc2C1=O	-3	4	0.9
C[C@@H]1CC=CC[C@@H](c2ccccc2)NC(=O)[C@H](C)N(C)C(=O)c2ccccc2O1 (mixture of isomers)	-9	-11	-2.3
C[C@@H]1CCCCO[C@H](CN(C)C(=O)NC2CCCCC2)[C@@H](C)CN([C@H](C)CO)C(=O)c2cc(NS(=O)(=O)c3cn(C)cn3)ccc2O1	3	8	-0.1
O=C(C1CCN(S(=O)(=O)N2CCOCC2)CC1)N1CCN(Cc2ccc3c(c2)OCO3)CC1	8	11	-2.4
CCC(=O)N(C)C[C@@H]1Oc2cc(C3=CCCCC3)ccc2S(=O)(=O)N([C@@H](C)CO)C[C@H]1C	-1	-12	-2.8
Cc1ccc(OC(=O)N(C)C[C@@H]2OCc3cn(nn3)CCCC(=O)N([C@@H](C)CO)C[C@@H]2C)cc1	-3	7	-4.7
C[C@H](CO)N1C[C@H](C)[C@@H](CN(C)S(=O)(=O)c2cccs2)Oc2ccc(NS(=O)(=O)c3cccs3)cc2CC1=O	-4	-7	-1.1
COc1ccc(S(=O)(=O)Nc2cccc3c2O[C@H](CN(C)CC2CCCCC2)[C@H](C)CN([C@H](C)CO)C3=O)cc1	2	-1	0.8
Cc1noc(C)c1NC(=O)N(C)C[C@@H]1Oc2ncc(C#CCC(C)C)cc2C(=O)N([C@H](C)CO)C[C@@H]1C	6	13	-0.6
CC(=O)N(C)C[C@@H]1Oc2ccc(NS(C)(=O)=O)cc2C(=O)N(C)C[C@@H]1C	1	2	-0.8
COc1ccc2c3c(n(C)c2c1)[C@@H](CO)N(C(=O)c1ccccc1)CC31CCN(C(=O)c2ccccc2)CC1	-5	-11	2.2
COc1ccc(CNC(=O)C[C@H]2C[C@@H]3c4cc(NC(=O)CC5CC5)ccc4O[C@@H]3[C@@H](CO)O2)cc1	-3	-6	-2.5
CCC(=O)N1[C@H](C(=O)N(C)C)[C@@H](CO)[C@@H]2Cn3c(ccc(-c4ccccc4)c3=O)[C@@H]21	5	5	-0.6
CC(=O)N1[C@@H](CO)[C@@H]2c3ccccc3N(S(=O)(=O)c3ccc(F)cc3)C[C@@H]21	-1	1	-2.0
COc1cccc(-c2cccc(-c3nc(C(=O)Nc4ccc(-c5ccccc5)cc4)cc4c3[C@H](CCO)N(S(=O)C(C)(C)C)C4)c2)c1 (some centres not stated)	29	28	57
CO[C@H](C(=O)N(C)C[C@@H]1OCc2ccccc2-c2c(n(C)c3ccccc23)C(=O)N([C@H](C)CO)C[C@H]1C)c1ccccc1	0	-5	0.8
Cc1noc(C)c1NC(=O)N(C)C[C@@H]1Oc2ccc(NC(=O)CCC(F)(F)F)cc2C(=O)N([C@@H](C)CO)C[C@H]1C	9	20	-2.3
O=S(=O)(Cc1ccccc1)N1CC2(C1)[C@H](c1ccccc1)[C@H](CO)N2CC1CCCC1	-16	-22	0.8
C[C@H](CO)N1C[C@H](C)[C@H](CN(C)C(=O)Nc2ccc3c(c2)OCO3)Oc2ccc(NS(=O)(=O)c3ccccc3)cc2CC1=O	0	-1	0.8
CCN(C[C@H]1[C@H](c2ccc(C3=CCCCC3)cc2)[C@H](CO)N1CC1CC1)C(C)=O	0	4	4.2
C[C@H]1CN([C@@H](C)CO)C(=O)c2ccccc2-c2ccccc2CO[C@@H]1CN(C)C(=O)c1ccncc1	-1	2	-3.4

Part of the list above, reformatted.
Results follow in this order: Ecoli rRNA inh, Ecoli rRNA inh OD600, Ecoli rRNA inh RFP
- C[C@@H]1CC=CC[C@@H](c2ccccc2)NC(=O)[C@H](C)N(C)C(=O)c2ccccc2O1 (mixture of isomers)
    -9, -11, -2.3
- CC(=O)N1[C@@H](CO)[C@@H]2c3ccccc3N(S(=O)(=O)c3ccc(F)cc3)C[C@@H]21
    -1, 1, -2.0
- Cc1noc(C)c1NC(=O)N(C)C[C@@H]1Oc2ccc(NC(=O)CCC(F)(F)F)cc2C(=O)N([C@@H](C)CO)C[C@H]1C
    9, 20, -2.3
- CC(=O)N(C)C[C@@H]1Oc2ccc(NS(C)(=O)=O)cc2C(=O)N(C)C[C@@H]1C
    1, 2, -0.8

Four entries picked at random from those above, as already listed:
SMILES	Ecoli rRNA inh	Ecoli rRNA inh OD600	Ecoli rRNA inh RFP
Cc1noc(C)c1NC(=O)N(C)C[C@@H]1Oc2ccc(NC(=O)CCC(F)(F)F)cc2C(=O)N([C@@H](C)CO)C[C@H]1C	9	20	-2.3
Cc1ccc(OC(=O)N(C)C[C@@H]2OCc3cn(nn3)CCCC(=O)N([C@@H](C)CO)C[C@@H]2C)cc1	-3	7	-4.7
Cc1noc(C)c1NC(=O)N(C)C[C@@H]1Oc2ncc(C#CCC(C)C)cc2C(=O)N([C@H](C)CO)C[C@@H]1C	6	13	-0.6
CCN(C[C@H]1[C@H](c2ccc(C3=CCCCC3)cc2)[C@H](CO)N1CC1CC1)C(C)=O	0	4	4.2

The list is partial; the hit share may differ from the screen's.
